Compound activity: PubChem BioAssay, several laboratories
Calb FLC – C. albicans growth modulation with fluconazole | C. albicans CaCi-2 (fluconazole-resistant clinical isolate) + fluconazole, Alamar Blue growth, 48 h | growth inhibition, % (concentration not given with the values) | 0.57% of 300,000 active;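 active means most replicates above 75%; inconclusive means exactly half above 75%; inactive means most below 75%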;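 further: all wells also contain fluconazole at 8 µg/ml as a sub-toxic cotreatment; 0% = median of DMSO wells and 100% = median of geldanamycin control wells; wells of about 8 µL received 7.5 nL stock; the first replicate is given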
LANA-H2A inh – blocks KSHV LANA binding to histone H2A/H2B; cell-free LANA-H2A/H2B peptide, fluorescence polarization; Q9QR71; 0.6% of 320,000 active; AID 2629; inhibition, % (no concentration beside the values); in the data active means inhibition mostly above about 10%, no sharp cut-off; inactive means mostly below about 6.7%;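 further: stock transfer was 7.5 nL into about 10 µL; 0% = median of vehicle wells and 100% = median of positive control wells; one replicate is shown; the record names a cut of 25% in any replicate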
HNF4A DNA FP – change in binding of human HNF4 alpha to DNA; activity change, % at 10 µM; P41235; HNF4a-FITC DNA binding, fluorescence polarization, 1 h; 0.3% of 360,000 active; AID 1224865; in the data active means activity change above about 30%, passing the limit was not always enough;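 further: controls were the assay level and a saturating level of protein; the project sought stronger binding though the title names inhibitors; some compounds called inactive have numbers as strong as hits; positive values seem to mean higher polarization but the record does not say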
Vif TR-FRET – HIV-1 Vif–A3G interaction blockers – biochemical, TR-FRET, GST-Vif 1-94, biotin-A3G peptide, dose response retest, primary screen (AID 1117319). TR-FRET GST-Vif / biotin-A3G peptide binding; higher % means a stronger effect; test concentration not given here; strong numbers were not always called active. inhibition, %; hits with a dose series show IC50 in µM. 0.57% of 260,000 active;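 active means above the screen mean plus three standard deviations and confirmed in dose response; inconclusive means results disagree or hit not tested in dose response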;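 further: Vif residues 1-94 fused to GST binding biotinylated APOBEC3G peptide 110-148; 0% = full assay without inhibitor and 100% = GST in place of GST-Vif; retest series ran down from 100 µM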
ALR inh – inhibitors of human sulfhydryl oxidase ALR. P55789. purified ALR, DTT oxidation, H2O2 HRP-luminol luminescence. inhibition, % (concentration not given with the values). 3.8% of 290,000 active;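 active means mean and each replicate at 75% or more; inconclusive means only one of the two met; inactive means neither met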;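 further: stock transfer was 7.5 nL into about 7.5 µL; 0% = neutral wells and 100% = wells with inactivated enzyme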
Target sequence (P55789 whole entry, looked up): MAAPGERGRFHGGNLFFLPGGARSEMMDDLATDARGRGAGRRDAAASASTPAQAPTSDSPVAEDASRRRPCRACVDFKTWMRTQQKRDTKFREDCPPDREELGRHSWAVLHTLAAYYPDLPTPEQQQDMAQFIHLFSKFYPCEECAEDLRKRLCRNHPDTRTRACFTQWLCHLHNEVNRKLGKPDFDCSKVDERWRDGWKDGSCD
B2AR ag – agonists of human beta-2 adrenergic receptor inducing internalization; response, % (no concentration beside the values); 0.43% of 340,000 active; Am2.2-beta2AR cells, FAP receptor internalization, flow cytometry; reference of the scale not given here;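 active means response above a set limit, near 3 SD of response in nonfluorescent compounds, cut at about 42% in these data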;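 further: stock transfer was 100 nL into about 11 µL; a reference agonist was the positive control; negative values mostly stem from fluorescent compounds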
Target sequence (P07550 whole entry, looked up): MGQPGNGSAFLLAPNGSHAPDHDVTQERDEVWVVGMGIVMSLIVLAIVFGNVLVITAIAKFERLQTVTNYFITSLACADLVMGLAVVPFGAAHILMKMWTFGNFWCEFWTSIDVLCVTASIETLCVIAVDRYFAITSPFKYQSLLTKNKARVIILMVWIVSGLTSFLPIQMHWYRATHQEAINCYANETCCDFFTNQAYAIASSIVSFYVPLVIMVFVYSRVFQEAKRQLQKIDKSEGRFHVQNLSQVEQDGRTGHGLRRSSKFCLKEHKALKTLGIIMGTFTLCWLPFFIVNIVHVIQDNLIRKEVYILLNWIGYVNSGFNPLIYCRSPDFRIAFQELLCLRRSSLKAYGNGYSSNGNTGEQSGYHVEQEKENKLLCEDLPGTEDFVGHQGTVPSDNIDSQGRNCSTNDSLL
RanGTP-Imp inh – disruptors of Ran-importin-beta complex formation – biochemical, FRET, CFP-Ran, YFP-importin-beta, homogeneous, primary screen; cell-free CFP-Ran/YFP-importin-beta FRET ratio; inhibition, % (no concentration beside the values); 1.1% of 300,000 active;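 active means most replicates above 15%; inconclusive means exactly half above 15%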;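 further: 0% = DMSO wells and 100% = Ran loaded with GDP instead of GTP; wells of about 40 µL received 100 nL stock; the first replicate is given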
Active calls of the source: *; ? = inconclusive; . = no result given; & = joins results of further samples.

SMILES	Calb FLC	LANA-H2A inh	HNF4A DNA FP	Vif TR-FRET	ALR inh	B2AR ag	RanGTP-Imp inh
CCOc1ccc(N2C(=O)CC(N(CCc3ccc(OC)c(OC)c3)C(=O)/C=C/C(=O)O)C2=O)cc1 (stereo not given)	-0.9	-2.7	3.0	32.8%	.	1.6	1.2
CC(=O)Nc1ccc(Nc2cc(N(C)C)c3nonc3c2[N+](=O)[O-])cc1	-0.9	1.2	-1.6	0.2%	-10.2	-6.2	2.4
CCOC(=O)C1=C(C)N=c2s/c(=C/c3ccco3)c(=O)n2C1c1cccc(OC)c1 (stereo not given)	0.7	-1.5	.	33µM*	.	.	-13.2
COc1ccccc1CNC(=O)CCCNS(=O)(=O)c1cccc2nsnc12	-5.5	-0.7	-3.3	21.5%	-2.4	11.8	-5.1
CC(=O)c1cccc(OCC(=O)N(C)CC(=O)NCc2ccco2)c1	.	-8.8	-17.1	.	-8.4	-0.6	.
Cc1nc2nc[nH]n2c(=O)c1C/C=C/c1ccccc1	-12.0	3.6	-3.0	8.5%	1.7	-2.5	7.3
Cc1nc2ccccc2cc1C(=O)N/N=C/c1ccco1	-10.8	-1.4	0.9	1.5%	-0.2	5.5	1.3
CCS(=O)(=O)N1Cc2ccccc2CC1C(=O)Nc1ccc(OC)cc1OC (stereo not given)	-2.0	0.6	2.0	-2.7%	-16.1	-1.6	-1.4
O=C(Cc1cccs1)NCc1cccc(C(F)(F)F)c1	3.3	-1.0	4.6	.	-1.0	11.2	0.2
O=C1C(Cc2ccccc2)Nc2ncnc(N3CCCCC3)c2N1Cc1ccc(Br)cc1 (stereo not given)	.	-5.0	5.4&2.1	.	-11.6	13.1	.
O=C(COC(=O)CNC(=O)c1ccccc1F)Nc1ccc2c(c1)OCO2	.	-1.1	2.6	.	-3.4	1.9	.
O=C(C1CCCN(Cc2nc(-c3cccs3)no2)C1)N1CCOCC1 (stereo not given)	-9.7	-2.8	1.4	1.6%	.	14.9	-3.2
CC(=O)NC1CC2CCCC(C1)N2C(=O)Nc1cccc(C)c1 (stereo not given)	.	.	6.6	0.3%	.	-2.2	.
COc1cccc(CN2C(=O)C3CCCN3c3ccc(S(=O)(=O)N4CCOCC4)cc32)c1 (stereo not given)	0.1	-3.3	.	22.1%	-0.5	.	2.6
Cc1cccc(NC(=O)CSc2ncnc3sc(C)cc23)c1	0.9	0.1	4.0	.	-2.9	-15.8	-1.2
O=C(NCCc1ccccc1Cl)C1CCC(=O)N(Cc2cccc(C(F)(F)F)c2)C1 (stereo not given)	-0.4	4.1	1.0	.	-2.8	-7.9	1.4
COc1ccc(/C=C/C(=O)c2cc(Cl)ccc2O)c(OC)c1	?	-0.8	-1.5	-7.5%	2.3	-0.1	0.7
O=C(NC1CCCC1)C(=O)N(c1ccccc1F)C(C(=O)NCC1CCCO1)c1cccs1 (stereo not given)	-14.6	6.3	1.1	-3.4%	-0.7	2.3	-2.6
CCN(CC)S(=O)(=O)c1ccc(N2CCOCC2)c(NC(=O)c2ccco2)c1	.	0.0	0.3	-5.4%	2.6	-14.7	.
Cc1nc2ccc(NC(=O)CCC3CCCC3)cc2s1	1.5	-0.6	3.0	.	17.9	-0.2	-12.2
Cc1ccc(C(=O)Nc2ccc(S(=O)(=O)NCc3ccco3)cc2)cc1	6.8	0.1	-4.5	14.7%	-4.3	10.1	5.2
CCn1c(SCC(=O)Nc2ccc(N3CCOCC3)cc2)nnc1-c1ccncc1	1.6	-1.8	-0.1	.	16.6	-0.6	0.3
O=C(CCN1C(=O)COc2ccccc21)NCc1cccnc1	3.2	-7.2	2.8	18.1%	-2.6	7.0	-2.3
Cc1ccc(-n2nc(C(=O)O)nc2-c2ccccc2)cc1	0.4	-4.4	-2.0	7.4%	.	-0.1	-2.3
Cc1cccc(-n2c(SCC(N)=O)nnc2-c2ccccn2)c1C	0.9	7.3	-1.2	-3.4%	-10.1	5.7	2.0
Oc1ccccc1N1CCN(Cc2ncc(-c3ccccc3)o2)CC1	-11.2	0.3	3.0	1.8%	-1.1	-7.8	0.4
Cc1cccc(NC(=S)N(CCCN2CCCC2)Cc2cccn2Cc2ccc(Cl)cc2)c1	-6.8	-0.8	-1.7	.	5.6	5.4	4.8
O=[N+]([O-])c1ccc(Cl)c(C[n+]2cccc3ccccc32)c1	3.1	0.0	3.5	.	-8.8	0.8	5.0
Nc1nc(Nc2ccccc2)nc(NCc2ccco2)c1[N+](=O)[O-]	41.5	2.9	2.5	14.6%	27.0	9.8	-0.6
CC[C@@]1(C(=O)OC)N[C@H](CN(C)C(=O)c2ccc(C)cc2)[C@@H]2C(=O)N(C)C(=O)[C@@H]21	.	.	-0.4	-0.8%	.	-4.2	.
O=C(NC(=S)Nc1ccc(CN2CCOCC2)cc1)c1ccccc1[N+](=O)[O-]	-13.5	9.0	-1.1	.	30.9	-4.6	-0.8
CCN(CC)CCNC(=O)/C(=C/c1cn(CC)c2ccccc12)NC(=O)c1cc(OC)c(OC)c(OC)c1	8.1	0.2	2.3	.	30.8	7.0	-2.1
O=C(Nc1ccc2c(c1)CCC2)c1cnc(Cl)c(Cl)c1	-7.6	0.9	-0.3	-1.9%	-1.2	0.2	0.9
CCN(CC)c1ccc(/C=N/N2CCN(Cc3cccc4ccccc34)CC2)c(O)c1	-16.4	1.0	1.8	-0.7%	2.1	-7.1	?
Cc1nc(CC(=O)NNS(=O)(=O)c2cccc(Cl)c2Cl)cs1	.	-1.9	-0.7	3.1%	5.3	-5.0	.
CCOC(=O)c1c(/N=C/C2C(=O)CC(C)(C)CC2=O)sc2c1CCCC2	-1.2	-3.3	-0.6	.	16.9	-7.6	6.1
COc1ccccc1C1CCN(C(=O)C2CCCCC2)CC1	8.8	-1.2	-3.4	3.3%	1.1	2.9	-2.1
Cc1ccc2cc(CCNC(=O)C(=O)c3c(C)[nH]c4ccccc34)c(=O)[nH]c2c1	0.6	-5.9	4.7	1.7%	.	-11.0	1.2
Cc1ccc(S(=O)(=O)N2CCC(C(=O)N[C@@H](C)C(=O)NCCc3ccccc3)CC2)cc1	.	4.5	-1.6	5.7%	-4.0	-6.1	.
CC(C)CNC(=O)C1Nc2ccc(OC(F)(F)F)cc2C2C=CCC12 (stereo not given)	-13.2	4.4	2.3	.	1.5	-5.3	2.0
COc1c(S(=O)(=O)N2CCN(C(=O)c3ccco3)CC2)ccc(Cl)c1Cl	3.1	-0.4	2.1	.	-3.3	2.4	6.4
Cc1cc(NS(=O)(=O)c2ccc(NC(=S)NC(=O)c3ccc(C(C)(C)C)cc3)cc2)no1	66.8	-4.0	0.0	.	31.3	3.8	-11.9
COc1cccc(/C=C/c2ccc3ccccc3n2)c1OC(C)=O	27.4	0.0	-1.3	-5.2%	7.5	-6.8	.
O=S(=O)(c1ccccc1)N1CCC(=NO)CC1	-16.7	-0.2	-1.5	-1.5%	-9.8	2.4	0.8
Cc1ccc(S(=O)(=O)N(CC2CO2)c2cccc([N+](=O)[O-])c2)cc1 (stereo not given)	-3.3	-6.2	-1.7	1.5%	.	-1.2	0.1
Cc1cc(C)cc(C(=O)NCC(=O)NCCc2c[nH]c3ccccc23)c1	-4.7	-4.3	0.0	-9.3%	.	2.4	4.6
COc1ccnc(Oc2ccccc2)c1-c1ncn[nH]1	22.3	-5.9	2.8	-0.8%	1.6	1.3	-2.3
Cc1ccc(S(=O)(=O)N2CCCC(C(=O)N3CCN(c4ccccc4)CC3)C2)cc1 (stereo not given)	.	-5.6	-3.4	.	10.1	-2.8	.
CCOc1ccc(C2CC(c3cccc(OC)c3OC)n3nnnc3N2)cc1Cl (stereo not given)	-2.8	-9.7	-0.2	-0.8%	-54.3	-3.4	3.0
CN1CCN(Cc2nnc(-c3ccccc3)o2)CC1	-5.8	-2.0	8.1	.	-7.0	-3.4	-1.4
CCC(c1nnc(SCC(=O)Nc2cccc(S(N)(=O)=O)c2)n1Cc1ccccc1)N(C)C (stereo not given)	7.6	0.3	0.6	.	.	-3.6	2.2
CCSc1nnc2c(n1)OC(c1ccc(C(=O)O)cc1)N(C(C)=O)c1ccccc1-2 (stereo not given)	-1.1	1.2	0.3	6.1%	-10.3	-2.8	-1.2
CCOC(=O)c1cccc(NC(=O)C(NS(=O)(=O)c2ccc3c(c2)CCN3C(C)=O)C(C)C)c1 (stereo not given)	.	-2.4	-2.8	27.8%	12.7	6.8	.
C=CCc1c(C)nc(SC)nc1Nc1ccccc1	?	-4.1	-1.1	-5.4%	.	-3.0	5.5
CC12CCC(C(=O)Nc3cccc4ccccc34)(C1Br)C2(C)C (stereo not given)	-20.3	-2.6	-3.0	-6.5%	-4.1	5.8	-1.2
CC(C)NC(=O)C(=O)NCCc1ccc(Cl)cc1	-2.7	2.8	3.0	-4.5%	.	-3.8	1.5
O=[N+]([O-])c1ccccc1/C=C/CN1CCC(O)CC1	-4.8	-6.5	1.9	.	-20.9	-2.0	-2.8
CC1CCC(NC(=O)C(C)N2C(=O)C3CCCCC3C2=O)CC1 (stereo not given)	.	1.3	4.0	.	-4.3	-0.9	.
CCCn1c(N2CCN(CC(=O)c3c(C)n(C)c4ccccc34)CC2)nc2c1c(=O)[nH]c(=O)n2C	-4.6	-0.5	-1.9	11.4%	-1.4	-13.8	-2.5
Cc1ccc(SCC(=O)Nc2ccccc2C(=O)N2CCOCC2)cc1	-4.8	0.8	-2.5	.	-0.2	5.2	3.0
Next part
SMILES	Calb FLC	LANA-H2A inh	HNF4A DNA FP	Vif TR-FRET	ALR inh	B2AR ag	RanGTP-Imp inh
CN1CCOc2cc(S(=O)(=O)Nc3ccc(F)cc3)ccc21	-0.3	1.7	-0.5	11.8%	1.2	-1.4	4.2
Cc1ccc(NC(=O)c2ccc(S(=O)(=O)N3CCOCC3)cc2)cc1	-5.2	1.7	1.8	.	.	2.5	?
COc1ccc(C(=O)Nc2ccc(S(=O)(=O)N3CCCCC3)cc2)cc1OC	-1.9	-6.3	0.8	-1.9%	-15.3	-1.0	2.3
COc1ccc(/C=C/C(=O)C2CC2)cc1COc1c(C)cccc1C	97.1*	0.8	1.1	-7.5%	3.6	-3.1	-0.9
Cc1cc(Br)ccc1NC(=O)CNC(=O)CN(C)C1CCS(=O)(=O)C1 (stereo not given)	.	.	0.1	0.9%	.	-7.2	.
COc1ccc(-c2csc(C3=C(O)CN(Cc4ccc(S(N)(=O)=O)cc4)C3=N)n2)cc1OC	0.3	-1.4	0.6	3.8%&-2.0%	-14.4	3.3	5.2
N#Cc1ccc(S(=O)(=O)NC2CC2)cc1	0.9	3.5	0.5	.	-15.4	7.6	?
C[C@@H]1CN(Cc2nc(Cc3ccccc3F)no2)C[C@H](C)O1	-3.9	-0.4	2.1	10.1%	-11.2	4.3	-3.3
CN(c1ccc(C(=O)NC2CCCCC2)cc1)S(=O)(=O)c1ccccc1	6.1	-5.0	0.1	.	2.0	-0.6	-2.0

Rows are unselected; 6.3% or so of the library scored in one or more.
